Beta apoptosis: beta cell apoptosis inhibition | INS-1E cytokine-induced death, ATP luminescence, 48 h; percent of positive-control rescue, neutral wells zero | protection from apoptosis, % (no concentration beside the values) | hit rate 0.8% among 300,000 | AID 435005;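 active = all replicates at 75% or more, or half of them and the mean; inconclusive = half reach 75% but not the mean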;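 note: 0% = cytokine-treated negative control wells and 100% = positive control rescue; higher means more ATP so stronger rescue from cytokine killing; wells of about 40 µL received 100 nL stock; the first replicate is given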
FGF22 binding: FGF22 (human) thermal shift binding; Q9HCT0; recombinant FGF22 thermal shift, SYPRO orange fluorescence; percent of sucrose octasulfate shift, DMSO zero; calls only at 9.99 µM; hit rate 1.5% among 340,000;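 active = melting point raised past a set limit in the mean and every replicate; inconclusive = no clear call; three in four hits are not shown here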
Target sequence (Q9HCT0 whole entry, looked up): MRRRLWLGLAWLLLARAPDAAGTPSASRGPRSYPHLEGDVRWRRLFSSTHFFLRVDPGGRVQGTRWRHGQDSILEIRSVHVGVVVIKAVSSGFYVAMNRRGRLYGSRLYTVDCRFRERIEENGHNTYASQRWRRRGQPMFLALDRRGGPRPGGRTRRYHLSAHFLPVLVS
MLL AF4-AF9 inh: inhibitors of human MLL-AF4/AF9 interaction; P42568; AlphaScreen, biotin-AF4 peptide binding to FLAG-AF9; inhibition, % at 10 µM; hit rate 0.47% among 350,000; AID 651704;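 active = every replicate reaching a set inhibition limit, whatever the replicate mean, cut at about 25% in these data; inconclusive = mean inhibition reaches that limit but some replicates miss it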;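 note: 0% = plate neutral control median and 100% = total signal loss; the record names both 10 and 1 µM as test concentration; the first replicate is given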
Target sequence (P42568 whole entry, looked up): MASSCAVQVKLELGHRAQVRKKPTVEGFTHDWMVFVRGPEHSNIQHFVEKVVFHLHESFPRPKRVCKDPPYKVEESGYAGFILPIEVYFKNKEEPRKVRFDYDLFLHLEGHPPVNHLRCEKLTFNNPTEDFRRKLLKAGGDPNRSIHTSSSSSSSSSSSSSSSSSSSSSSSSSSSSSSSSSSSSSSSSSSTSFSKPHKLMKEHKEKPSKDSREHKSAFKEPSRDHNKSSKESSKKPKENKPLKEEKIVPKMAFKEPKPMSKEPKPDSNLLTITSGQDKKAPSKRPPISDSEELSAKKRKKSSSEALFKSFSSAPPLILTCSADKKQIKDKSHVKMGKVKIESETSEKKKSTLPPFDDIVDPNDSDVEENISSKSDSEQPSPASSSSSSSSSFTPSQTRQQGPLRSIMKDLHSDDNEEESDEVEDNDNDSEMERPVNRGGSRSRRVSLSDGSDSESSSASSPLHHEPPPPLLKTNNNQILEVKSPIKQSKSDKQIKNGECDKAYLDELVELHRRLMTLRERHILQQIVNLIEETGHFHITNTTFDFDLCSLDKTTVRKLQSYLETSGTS
RanGTP-Imp inh: disruptors of Ran-importin-beta complex formation – biochemical, FRET, CFP-Ran, YFP-importin-beta, homogeneous, primary screen; cell-free CFP-Ran/YFP-importin-beta FRET ratio; inhibition, % (no concentration beside the values); hit rate 1.1% among 300,000;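 active = most replicates above 15%; inconclusive = exactly half above 15%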;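 note: 0% = DMSO wells and 100% = Ran loaded with GDP instead of GTP; wells of about 40 µL received 100 nL stock; the first replicate is given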
ALR H2O2 inh: human ALR oxidase inhibition via reduced H2O2; P55789; purified ALR, DTT oxidation, H2O2 HRP-luminol luminescence; inhibition, % (no concentration beside the values); hit rate 3.8% among 290,000; AID 485317;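 active = mean and each replicate at 75% or more; inconclusive = only one of the two met; inactive = neither met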;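 note: stock transfer was 7.5 nL into about 7.5 µL; 0% = neutral wells and 100% = wells with inactivated enzyme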
Target sequence (P55789 whole entry, looked up): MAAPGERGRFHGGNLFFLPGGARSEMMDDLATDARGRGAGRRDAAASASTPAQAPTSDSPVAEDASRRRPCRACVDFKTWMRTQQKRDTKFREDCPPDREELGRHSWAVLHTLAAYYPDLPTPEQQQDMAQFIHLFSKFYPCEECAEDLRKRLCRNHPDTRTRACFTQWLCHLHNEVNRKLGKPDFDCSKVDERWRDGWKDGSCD
Calb FLC: C. albicans growth modulation with fluconazole. C. albicans CaCi-2 (fluconazole-resistant clinical isolate) + fluconazole, Alamar Blue growth, 48 h. growth inhibition, % (concentration not given with the values). hit rate 0.57% among 300,000. AID 1979;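 active = most replicates above 75%; inconclusive = exactly half above 75%; inactive = most below 75%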;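 note: all wells also contain fluconazole at 8 µg/ml as a sub-toxic cotreatment; 0% = median of DMSO wells and 100% = median of geldanamycin control wells; wells of about 8 µL received 7.5 nL stock; the first replicate is given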
T cruzi repl: blocks replication of Trypanosoma cruzi; hit rate 1.4% among 300,000; inhibition, % (test concentration not listed); AID 1885; T. cruzi beta-gal in NIH3T3, luminescence, 90 h;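 active = mean inhibition across valid replicates above about 55%, limit read from the data; inconclusive = mean below that limit but half or more replicates reach it; inactive = mean below it, under half of replicates reach it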;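 note: signal also drops with host cell toxicity which is not excluded here; 0% = plate median of DMSO wells and 100% = zero luminescence signal; higher percent means less beta-gal luminescence so fewer parasites; stock transfer was 50 nL into about 50 µL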
rRNA inh HTS: selective bacterial rRNA inhibition in E. coli; GFP signal change (wild-type ribosome), % (concentration not given with the values); E. coli WT GFP vs humanized-ribosome RFP mutants, fluorescence, 24 h; active compounds read low; DMSO median 0, no signal -100; AID 720706; hit rate 1.6% among 350,000;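 active = significant combined selectivity score with lowered wild-type GFP, culture density cut under 30%, mutant RFP and density less affected; inactive = any of these conditions unmet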; note: one replicate is shown; some compounds called inactive have numbers as strong as hits
rRNA inh HTS OD600: second read-out of rRNA inh HTS, no call of its own (marks repeat the call); OD600 change, %; measured here: OD600 growth;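 optical density of the mix in the first replicate; 0 = DMSO median and -100 = no signal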
rRNA inh HTS RFP: further read-out of rRNA inh HTS, marked with its call; RFP signal change, %; measured here: RFP humanized mutant strains;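 first replicate; 0 = DMSO median and -100 = no signal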
* hit, by the source's call; i = inactive; ? = inconclusive; nt = no result given; + = active, no number.

SMILES	Beta apoptosis	FGF22 binding	MLL AF4-AF9 inh	RanGTP-Imp inh	ALR H2O2 inh	Calb FLC	T cruzi repl	rRNA inh HTS	rRNA inh HTS OD600	rRNA inh HTS RFP
CSc1ncccc1C(=O)OCC(=O)NC(C)(C)C	-0.4	i	-0.6	0.6	nt	8.7	-2.4	10.6	3.5	0.1
CCOC(=O)c1cc(-c2ccc(OC(F)F)cc2)nc2c1c(=O)[nH]c(=O)n2C	2.0	nt	nt	-3.9	-9.6	7.3	-7.6	nt	nt	nt
CCOP(=O)(OCC)C(NC(=O)c1ccc(OC)c(OC)c1)c1ccccc1 (stereo not given)	-1.2	i	-0.7	-0.5	nt	1.2	-2.3	11.7	4.1	3.9
Cc1ccc2c(COC(=O)c3ccccc3Cl)cc(=O)oc2c1	1.1	i	-1.4	6.4	-11.2	-3.6	-0.2	5.5	6.9	0.6
COc1ccc(C(=O)C2CCCN(C(=O)c3cccc(Cl)c3F)C2)cc1OC (stereo not given)	-5.7	i	0.3	0.6	-8.6	3.8	-0.8	-11.1	-13.3	1.4
COC(=O)Cn1c(=O)c(C(=O)CCl)c(N)n(Cc2ccccc2)c1=O	-15.2	i	3.3	-0.2	-0.5	0.8	?	9.0	-0.7	0.3
COc1ccc(OC)c(N/C=C2/CCCCC2=O)c1	-4.5	nt	nt	-4.5	11.5	-9.2	10.0	nt	nt	nt
Cc1ccc(C(=O)Nc2ccncc2)cc1[N+](=O)[O-]	6.3	i	-2.6	2.5	53.6	-7.7	43.5	-4.7	0.1	-5.1
Cc1nnc(SCCn2c(N(C)Cc3ccccc3)nc3c2c(=O)n(C)c(=O)n3C)s1	0.6	nt	nt	1.0	0.0	-5.1	2.9	nt	nt	nt
CCCN(CC(=O)Nc1ccccc1C)C(=O)C1CCN(C(=O)Nc2ccccc2)CC1	-4.0	i	-7.1	-3.5	-11.3	-2.3	-11.1	7.0	8.6	-2.5
O=C(Nc1cccc(NC(=O)c2ccc(Cl)cc2)n1)c1ccc(Cl)cc1	-3.9	i	-3.5	-2.4	-1.6	-1.1	8.1	12.0	1.4	1.2
Cc1ccc(OCC(=O)Nc2cccc(S(=O)(=O)N3CCCCCC3)c2)cc1C	-0.1	i	10.0	3.5	1.0	-4.1	9.4	-8.3	-10.2	3.7
CCOc1ccccc1NC(=O)CCN(c1ccc(C)cc1)S(=O)(=O)c1ccccc1	7.7	nt	nt	-2.0	-9.0	-3.8	28.3	nt	nt	nt
CCCCc1nc2cc(C(=O)N(C)C(C)c3ccccn3)ccc2o1 (stereo not given)	nt	i	0.8	-3.3	nt	-18.2	2.1	-0.1	1.0	0.0
COc1ccc(C2CC(O)(c3ccccc3)Oc3cc(OC)ccc32)cc1 (stereo not given)	-5.1	i	2.4	2.0	nt	20.0	-2.2	-49.9	-68.5	-19.1
Cc1cc(C)c(C)c(OCC(=O)NCc2nc(-c3ccccc3)no2)c1	-0.8	nt	nt	-1.7	-24.4	2.5	9.6	nt	nt	nt
CCc1cc2c(=O)n(-c3ccccc3)c(SCC(=O)O)nc2s1	-7.6	i	-0.6	6.6	0.0	-12.7	-10.4	nt	nt	nt
O=C(O)c1ccccc1Nc1ccc2nonc2c1[N+](=O)[O-]	nt	i	-0.1	-2.7	nt	-6.9	0.4	2.2	0.4	0.2
N=c1c2c(-c3ccccc3)c(-c3ccccc3)n(Cc3ccco3)c2ncn1CCCN1CCOCC1	?	nt	14.8	7.5	nt	-5.2	91.7*	-21.2	-30.2	-1.0
CC(/C=N/NC(=O)c1cc(-c2ccccc2)nc2ccccc12)=C\c1ccco1	22.4	nt	nt	4.6	-4.8	20.5	-36.9	nt	nt	nt
CCn1c(Cc2ccccc2)nnc1SCC(=O)Nc1ccc(N)cc1	0.7	nt	nt	5.8	86.6*	-9.7	36.7	nt	nt	nt
CCc1ccc(NC(=O)C2CCCN2S(=O)(=O)c2ccc3c(c2)n(C)c(=O)c(=O)n3C)cc1 (stereo not given)	-2.3	i	6.3	2.1	-4.2	5.3	6.0	13.1	8.0	-2.4
CC(=O)N/C(=C/c1ccccc1)C(=O)NCCO	-1.7	nt	nt	-5.6	-19.7	-8.7	-6.8	nt	nt	nt
COc1ccc(-c2nc3ccc(C)cn3c2NCc2ccccc2)cc1SC1CCCCC1	99.4*	nt	nt	-1.7	-6.5	8.0	62.6*	nt	nt	nt
O=C(CCSCCC(=O)NCc1ccco1)NCc1ccco1	-0.7	nt	nt	1.0	4.6	nt	6.2	nt	nt	nt

Single records, from the list above.
CCc1cc2c(=O)n(-c3ccccc3)c(SCC(=O)O)nc2s1 across the screens: Beta apoptosis: -7.6; FGF22 binding: i; MLL AF4-AF9 inh: -0.6; RanGTP-Imp inh: 6.6; ALR H2O2 inh: 0.0; Calb FLC: -12.7; T cruzi repl: -10.4; rRNA inh HTS: nt; rRNA inh HTS OD600: nt; rRNA inh HTS RFP: nt
O=C(O)c1ccccc1Nc1ccc2nonc2c1[N+](=O)[O-] across the screens: Beta apoptosis: nt; FGF22 binding: i; MLL AF4-AF9 inh: -0.1; RanGTP-Imp inh: -2.7; ALR H2O2 inh: nt; Calb FLC: -6.9; T cruzi repl: 0.4; rRNA inh HTS: 2.2; rRNA inh HTS OD600: 0.4; rRNA inh HTS RFP: 0.2

Additional entries follow.
SMILES	Beta apoptosis	FGF22 binding	MLL AF4-AF9 inh	RanGTP-Imp inh	ALR H2O2 inh	Calb FLC	T cruzi repl	rRNA inh HTS	rRNA inh HTS OD600	rRNA inh HTS RFP
Cc1c(N)c(=O)n(-c2ccccc2)n1C	0.1	i	-1.8	nt	9.9	nt	nt	nt	nt	nt
COc1ccccc1NC(=O)N1CCN(c2ccccc2F)CC1	-3.2	nt	nt	3.3	nt	7.6	-11.1	nt	nt	nt
CN(C(=O)COC(=O)Cc1c(Cl)cccc1Cl)c1c(N)n(Cc2ccccc2)c(=O)[nH]c1=O	0.0	i	-0.3	-0.4	-7.1	3.6	-7.3	11.1	11.6	1.7
CCC(OC(=O)c1cccs1)C(=O)NCc1ccc(C)cc1 (stereo not given)	-4.7	i	-3.4	-2.8	-4.7	4.1	-5.7	-3.4	-3.6	-2.7
COc1ccc(N2CC(O)=C(c3nc4ccccc4s3)C2=N)cc1	-0.2	i	-44.3	1.4	-3.2	16.1	7.9	10.1	4.2	-1.2
COc1ccc(N2C(=O)CC(N3CCN(c4ccccc4OC)CC3)C2=O)cc1 (stereo not given)	nt	i	-2.6	-2.5	4.3	-3.9	-2.8	-4.8	0.7	-1.0
CC(C)C(=O)NC(c1ccco1)c1c(O)ccc2ccccc12 (stereo not given)	-4.6	nt	nt	-4.0	38.7	-4.7	9.3	nt	nt	nt
O=C(NC(=O)c1c(F)cccc1F)Nc1ccccc1SC(F)F	-6.0	i	0.1	3.2	-3.1	-19.8	-17.4	-7.5	5.9	-1.2
CC(C)Oc1ccc(C(=O)NC2CCN(Cc3ccccc3)CC2)cc1	4.3	+	0.0	-0.2	-7.0	-8.8	32.9	21.6	6.8	0.6
O=C(NCCC1=CCCCC1)C1CCN(S(=O)(=O)c2cnc[nH]2)CC1	-4.4	nt	nt	0.4	-8.1	nt	-18.4	nt	nt	nt
CCc1nnc(NC(=O)C2CCN(c3nc(C)cc(C)n3)CC2)s1	1.7	nt	nt	0.5	-12.1	-1.7	0.3	nt	nt	nt
O=C(NC1CC1)c1c[nH]c2ccc(S(=O)(=O)Nc3cccc(C(F)(F)F)c3)cc2c1=O	-1.3	nt	nt	?	3.3	0.6	-12.1	nt	nt	nt
c1cnn(-c2nc(N3CCOCC3)nc(N3CCOCC3)n2)c1	-3.8	nt	nt	-1.9	-0.1	29.0	-0.9	nt	nt	nt
COc1ccc(/C=N/NC(=O)C(=O)Nc2ccccn2)cc1OC	-12.1	nt	nt	5.9	nt	-2.7	-2.2	nt	nt	nt
O=C(NCCCO)/C(=C/c1ccco1)NC(=O)c1ccc(Br)o1	-3.5	i	-3.9	2.4	-18.3	-4.1	-31.6	6.0	9.1	2.2
O=C(CNC(=O)C1CCCCC1)Nc1cc(Cl)cc(Cl)c1	-2.7	nt	nt	5.0	nt	-16.7	-9.8	nt	nt	nt
Cc1ccc(-c2ccc(SCC(=O)NCC3CCCO3)nn2)cc1 (stereo not given)	0.5	i	0.0	-7.4	28.6	7.5	-11.2	-7.3	1.6	-0.3
Nc1c([N+](=O)[O-])cnnc1-c1ccccc1	4.1	i	-1.0	-1.3	nt	-1.6	4.8	4.2	6.9	-2.2
COC(=O)c1cc(NC(=O)CN(C)C2CCS(=O)(=O)C2)cc(C(=O)OC)c1 (stereo not given)	-2.6	i	-0.8	nt	-0.8	nt	nt	1.3	-0.6	-3.7
c1ccc(OCc2nc3c4c(ncn3n2)-c2ccccc2CC42CCCC2)cc1	2.8	i	-2.7	-2.5	-1.8	2.5	39.4	8.0	19.2	-1.0
COc1cc2c(cc1C=O)OC(C)C2 (stereo not given)	-3.0	i	-0.8	0.2	-10.5	-3.9	-2.8	11.4	3.3	0.9
CON/C=C(\C=Nc1ccc(F)cc1)c1ncc(C(F)(F)F)cc1Cl	7.1	nt	nt	7.5	-6.4	7.9	16.7	nt	nt	nt
COc1ccnc2c1c(=O)n(Cc1c(F)cccc1Cl)c(=O)n2C	4.5	i	0.2	2.6	-4.9	-1.9	28.4	10.9	7.7	-0.2
COc1ccc(OC)c(NC(=O)CN2C(=O)C(C)N(c3ccc(C)cc3)C2=O)c1 (stereo not given)	2.3	i	-12.5	nt	-18.0	nt	nt	0.2	4.5	-0.1
O=C(NCc1ccccn1)c1cnc2sccn2c1=O	-0.3	nt	nt	2.1	2.3	nt	0.2	nt	nt	nt
SMILES	Beta apoptosis	FGF22 binding	MLL AF4-AF9 inh	RanGTP-Imp inh	ALR H2O2 inh	Calb FLC	T cruzi repl	rRNA inh HTS	rRNA inh HTS OD600	rRNA inh HTS RFP
COc1ccc(Nc2nc(N3CCN(S(C)(=O)=O)CC3)nc3ccccc23)c(OC)c1	6.1	i	-3.6	3.4	-6.8	2.3	9.3	11.9	12.7	3.9
Cc1ccc(C(=O)Nc2ncc3c(Cl)cccc3n2)cc1	28.9	nt	nt	0.5	2.7	-13.3	2.2	nt	nt	nt
COc1ccc(/C=N/NC(=O)c2ccc3c(c2)OCCO3)cc1[N+](=O)[O-]	-2.8	nt	nt	3.8	-2.0	-12.7	-24.0	nt	nt	nt
CC(NC(=O)c1ccc(NS(C)(=O)=O)cc1)c1ccccc1 (stereo not given)	-7.0	nt	nt	1.0	-16.4	-1.8	-14.1	nt	nt	nt
Cc1ccc(C(C(=O)NCc2ccco2)N(C(=O)CNC(=O)c2cccs2)c2c(C)cc(C)cc2C)cc1 (stereo not given)	-5.9	i	0.4	0.2	-1.9	2.2	-3.6	9.6	14.0	-1.4
O=C(CSc1nnc(NC(=O)C2CCC2)s1)Nc1ccc(N2CCOCC2)cc1	1.5	nt	nt	-1.7	nt	-6.5	3.5	nt	nt	nt
Cc1oc(CC(C)C)cc1C(=O)NCCCC(=O)O	0.3	nt	-1.5	11.3	-0.7	7.3	-6.0	12.0	8.0	-2.0

Bioassay records (PubChem)

Not all compounds are listed; rates above refer to the full screens.
